StopGo RLuc – lowers the Renilla signal of an FMDV 2A StopGo reporter; actives 0.32% (n = 120,000); AID 1745857; HEK cells with a luciferase reporter of 2A StopGo recoding; Potency, µM (series often up to 57.5 µM), without a hit: at the highest dose signal change, negative = less light; active means well fitted falling curve with a large enough effect; inconclusive means small, poorly fitted or top-dose-only effect; inactive means no such curve, though single readings can be large or run the other way; note: nearly all actives have a fitted effect of over 55% in size; overnight with compound
2A firefly – FMDV 2A StopGo reporter, firefly signal | HEK cells with a luciferase reporter of 2A StopGo recoding | AID 1745856 | Potency, µM (highest dose often 57.5 µM), inactives show at the highest dose signal change, negative = less light | actives 0.23% (n = 120,000); active = well fitted falling curve with a large enough effect; inconclusive = small, poorly fitted or top-dose-only effect; inactive = no such curve, though single readings can be large or run the other way; note: nearly all actives have a fitted effect of over 60% in size; overnight with compound
Active calls of the source: *; ? = inconclusive; [ ] = remark or other dose. % is set by controls: 0 for no effect and ±100 for the full control effect; potency is the fitted concentration of half-maximal effect. These rows are one share of the data (hit frequency here may not be typical).

SMILES	StopGo RLuc	2A firefly
CCCCN(CCCC)CCn1cnc2c([nH]c3ccc(OC)cc32)c1=O	-19%	-11%
NC(=O)Cn1c(=O)n(CCCCCC(=O)NCc2ccccc2Cl)c(=O)c2sccc21	-1%	33%[activator]
Cc1occc1C(=O)Nc1ccc(SC2CCCC2)cc1	11%	126%[activator]
CCc1cc(=O)oc2cc(OCc3nc(-c4cccc(Cl)c4)no3)ccc12	-6%	-2%
N#Cc1ccc(OCC(O)CN2CCN(c3nccs3)CC2)cc1 (stereo not given)	-6%	-7%
CC(=O)c1ccc(C(C)(C)C)cc1NC(=O)c1ccc(C)cc1	3%	21%
Cc1nc2ccccc2c(C)c1CC(=O)O	1%	6%
N#CCCNc1ccc(Br)cc1	-11%	5%
Cc1ccc2[nH]c(C)c(C(O)CN3CCC(C)CC3)c2c1 (stereo not given)	-15%	-14%
CC(SC(C)c1ccc(F)cc1)C(N)=O (stereo not given)	-2%	-1%
CCc1ccc(C2C(C(=O)Nc3ccccc3OC)=C(C)Nc3nc(SCc4ccccc4)nn32)cc1 (stereo not given)	-2%	19%
CC(=O)c1ccc(NC(=O)C2CCC(CNS(=O)(=O)c3ccc4c(c3)CCCC(=O)N4)CC2)cc1 (stereo not given)	18%	-9%
COc1ccc2c(c1)C(=O)N(CCc1ccc(S(=O)(=O)NC(=O)NC3CCCCC3)cc1)C(=O)C2(C)C	160%[activator]	16%
NC(=O)N1c2ccccc2C=Cc2ccccc21	-10%	-18%
Clc1cc(Cl)cc(CNCCN2CCCC2)c1	0%	-6%
CN(CCOC(=O)c1ccccc1F)C(C)(C)C	-6%	4%
CCCSc1ncc(Cl)c(C(=O)Nc2ccc(S(=O)(=O)N3CCCCC3CC)cc2)n1 (stereo not given)	166%[activator]	24%
CCN(CC)C(CNS(=O)(=O)c1ccccc1)c1ccsc1 (stereo not given)	0%	-13%
CCN(CC)S(=O)(=O)c1ccc(N(C)C)c(N)c1	9%	1%
CCOC(=O)c1ccc(NC(=O)COC(=O)c2ccc3ccccc3n2)cc1	-12%	19%
CCc1ccc2oc(C(=O)NCC(c3ccc(Cl)cc3)N3CCOCC3)c(C)c2c1 (stereo not given)	-14%	-9%
COCCn1c(C)c(C)c(S(=O)(=O)c2ccc(F)cc2)c1NC(=O)C(C)C	22%	-3%
O=C(Nc1ccc(F)c(Cl)c1)C1Cc2ccccc2CN1S(=O)(=O)c1ccc(F)cc1 (stereo not given)	33%[activator]	43%[activator]
CCc1ccccc1NC(=O)c1cnc(N2CCCCC2)c2ccccc12	-14%	-25%
CCc1ccc2oc(C(=O)NCCc3ccc(OC)c(OC)c3)cc(=O)c2c1	?	35µM*
COc1cc(Br)c(/C=C/C(=O)O)cc1OC	2%	2%
CCCCCC(=O)Nc1cccc(-c2nc3ccccc3o2)c1C	20%	37%[activator]
O=C(OCC(=O)N1CCCCC1)c1cc(=O)c2cc(Cl)ccc2o1	11%	20%
O=C(Cc1ccc(-c2ccccc2)cc1)Oc1ccc(Cl)c2ccccc12	4%	14%
COc1ccc(-c2nc(SC(C)C(=O)NCC(C)C)n[nH]2)c(OC)c1 (stereo not given)	53%[activator]	0%
Cc1ccc(NC(=O)C(C#N)=C2CCC(C(C)(C)C)CC2)cc1 (stereo not given)	27%	0%
NS(=O)(=O)c1ccc(N/N=C/c2ccc(F)c(F)c2)c([N+](=O)[O-])c1	6%	12%
Cc1nn(C)c2sc(C(=O)N3CCN(S(=O)(=O)c4ccccc4Cl)CC3)cc12	20%	11%
Clc1ccc(Sc2ncccc2Cl)cc1	4%	0%
O=C(COc1ncnc2ccccc12)Nc1ccc(F)c(F)c1	-13%	-11%
CS(=O)(=O)N1CCc2cc(C(=O)Nc3ccc(-c4nnc5n4CCCCC5)cc3)ccc21	-16%	-8%
O=C(O)CCCc1ccc(Cl)c(Cl)c1	21%	0%
Cc1ccc(F)c2c(C=O)c(C(C)(C)C)[nH]c12	-5%	21%
N#Cc1cccnc1NCCNc1cccc2ccccc12	-3%	179%[activator]
Cc1nc(-c2cccs2)c(CC(=O)N2CCN(c3ccc(F)cc3)CC2)s1	-18%	-4%

Quoted from the results shown (14 entries):
SMILES	StopGo RLuc	2A firefly
CCc1ccc2oc(C(=O)NCC(c3ccc(Cl)cc3)N3CCOCC3)c(C)c2c1 (stereo not given)	-14%	-9%
COCCn1c(C)c(C)c(S(=O)(=O)c2ccc(F)cc2)c1NC(=O)C(C)C	22%	-3%
O=C(Nc1ccc(F)c(Cl)c1)C1Cc2ccccc2CN1S(=O)(=O)c1ccc(F)cc1 (stereo not given)	33%[activator]	43%[activator]
CCc1ccccc1NC(=O)c1cnc(N2CCCCC2)c2ccccc12	-14%	-25%
CCc1ccc2oc(C(=O)NCCc3ccc(OC)c(OC)c3)cc(=O)c2c1	?	35µM*
COc1cc(Br)c(/C=C/C(=O)O)cc1OC	2%	2%
CCCCCC(=O)Nc1cccc(-c2nc3ccccc3o2)c1C	20%	37%[activator]
O=C(OCC(=O)N1CCCCC1)c1cc(=O)c2cc(Cl)ccc2o1	11%	20%
O=C(Cc1ccc(-c2ccccc2)cc1)Oc1ccc(Cl)c2ccccc12	4%	14%
COc1ccc(-c2nc(SC(C)C(=O)NCC(C)C)n[nH]2)c(OC)c1 (stereo not given)	53%[activator]	0%
Cc1ccc(NC(=O)C(C#N)=C2CCC(C(C)(C)C)CC2)cc1 (stereo not given)	27%	0%
NS(=O)(=O)c1ccc(N/N=C/c2ccc(F)c(F)c2)c([N+](=O)[O-])c1	6%	12%
Cc1nn(C)c2sc(C(=O)N3CCN(S(=O)(=O)c4ccccc4Cl)CC3)cc12	20%	11%
Clc1ccc(Sc2ncccc2Cl)cc1	4%	0%

The list goes on:
SMILES	StopGo RLuc	2A firefly
CCN(CC)CCNC(=O)c1nc(-c2cccc3[nH]ccc23)no1	28%	8%
Cc1cccc(NC(=O)C(=O)NC2CCC(C(C)(C)C)CC2)c1 (stereo not given)	12%	195%[activator]
COc1cc(C2C(C(=O)Nc3ccccc3)=C(C)Nc3nc(SCC(=O)c4ccc(C)cc4)nn32)ccc1O (stereo not given)	-18%	-20%
COC(=O)C1CN(Cc2ccc(OC)cc2)CCS(=O)(=O)N1Cc1ccc(C)cc1 (stereo not given)	0%	?
N#Cc1ccccc1-n1ccnc1	4%	-2%
CCC(=O)NCCCNC(=O)c1nc2ccccc2c(=O)[nH]1	-7%	27%
CCOc1ccc2nc(N3CCCC(C(=O)Nc4c(C)cccc4C)C3)sc2c1 (stereo not given)	-2%	-2%
Cc1ccc(Cn2cc(CN(C(C)(C)C)S(=O)(=O)c3ccc(F)cc3Br)nn2)cc1	?	?
O=C1CCCC2=C1C(c1ccccc1F)Nc1nonc1N2 (stereo not given)	-8%	-15%
CCc1ccc2nc(N3CCN(C(=O)c4ccccc4)CC3)sc2c1	?	?
O=C(Cn1c(=O)oc2cc(S(=O)(=O)N3CCCCCC3)ccc21)NCc1ccccc1Cl	?	28µM*
COc1cc2c(cc1OC)CN(Cc1cc(=O)c(OCc3cccc(Cl)c3)co1)CC2	-5%	2%
COc1ccc2sc(N(Cc3cccnc3)C(=O)C3CCCCC3)nc2c1	1%	14%
COc1ccc(CCNC(=O)c2cnn(-c3ccccc3)c2-n2cccc2)c(OC)c1	?	?
CCS(=O)(=O)c1ccc(Cc2ccc(S(=O)(=O)CC)cc2)cc1	?	?
N=C(N)c1cc(Cl)cc([N+](=O)[O-])c1	-8%	-2%
C/C(CC(C)C)=N\NC(=O)c1cccc(C)c1	14%	88%[activator]
Cc1oc2ncn(CC(C)C)c(=O)c2c1C(=O)NCCc1ccc(Cl)cc1	3%	9%
COc1ccc(-c2cc3ccc(OCC(=O)NCCN(C)C)cc3oc2=O)cc1OC	-1%	-3%
CCCOc1ccc(C(=O)Nc2cc3nn(-c4ccc(CC)cc4)nc3cc2C)cc1	-7%	-18%
CCn1c(=O)c2cc(C(=O)NCCCN3CCN(C)CC3)sc2c2ccccc21	20%	57%[activator]
O=C1c2ccccc2C(=O)C1(c1ccccc1)N1CCN(c2cccc(Cl)c2)CC1	-11%	-16%
CCCCNC(=O)COC(=O)CSc1nc2ccccc2o1	6%	18%
COc1ccc(-c2nc(C#N)c(N3CCN(C)CC3)o2)cc1OC	5%	28%
CCCCOc1cc(C(=O)NCCN(CC)CC)c2ccccc2n1	-9%	-18%
CCOC(=O)c1ccc(NC(=O)C(CC)Sc2nc3ccncc3[nH]2)cc1 (stereo not given)	20%	35%[activator]
COc1ccccc1CNC(=O)Cn1c(=O)c2c(ncn2C2CCCC2)n(Cc2ccccc2)c1=O	-5%	-11%
Cc1ncc(CO)c2c1Oc1nc(-c3ccc(F)cc3)nc(SCC(=O)N3CCCCC3)c1C2	-4%	-11%
COCCNC(=O)c1cc(-c2ccc(Cl)cc2)nc2ccccc12	-2%	25%
COc1ccc(CCNC(=O)CSc2ccc(-c3cccs3)nn2)cc1OC	-6%	10%
c1ccc(-c2csc(=NC3CCCCC3)n2N=C2CCCC2)cc1	1%	13%
CC1CCN(c2ccc3nnc(CCC(=O)NCC4CCN(Cc5ccc(F)cc5)CC4)n3n2)CC1	-17%	-15%
CCc1c(C)sc(NC(=O)/C=C/c2c(Cl)cccc2Cl)c1C#N	0%	33%[activator]
FC(F)(F)c1cc(-c2ccccc2)nc(SCc2ccccc2Cl)n1	8%	10%
CCOC(=O)N1CCc2c(sc3c2c(=O)n(-c2ccc(Cl)cc2)c(=O)n3Cc2cccc(OC)c2)C1	-25%	-30%
Cc1cccc(/C=C(/C#N)c2nc3ccccc3[nH]2)c1	0%[1.06 µM]	0%
COc1ccc(N(CC(=O)NCc2ccc(F)cc2)S(=O)(=O)c2c(C)n[nH]c2C)cc1	13%	-17%
COc1ccccc1N1CCN(C(=O)c2c(C)oc3ncn(CC(C)C)c(=O)c23)CC1	-5%	-1%
O=C(NCc1cccc(Cl)c1)c1ccc(NC(=O)N2CC3CCCN3c3ccccc32)cc1 (stereo not given)	0%	23%
CC1=[N+]([O-])C(c2ccc(Cl)cc2Cl)N(O)C1(C)C (stereo not given)	-5%	0%
COc1cc(OC)cc(C(=O)Nc2ccc3oc(-c4ccccc4C)nc3c2)c1	-7%	-1%
Cc1ccc(C(=O)CCC(=O)OCC(=O)c2ccc(Cl)c(Cl)c2)cc1	3%	-7%
CC(C)CNC(=O)CCNC(=O)c1ccccc1	6%	8%
COc1ccccc1CCNC(=O)Cc1c(C)c2cc3c(C)coc3cc2oc1=O	-3%	-9%
COc1ccccc1CNC(=O)Cc1csc2nc(-c3ccccc3)cn12	17%	10%
O=C(COc1ccc(F)cc1)OCc1cc(=O)n2nc(-c3cccs3)sc2n1	-12%	20%
CCOc1ccc(C(=O)NCC(c2ccco2)S(=O)(=O)c2ccc(C)cc2)cc1 (stereo not given)	54%[activator]	45%[activator]
CCc1c(C)sc2nc(NCc3ccco3)n3nc(-c4ccco4)nc3c12	-1%	3%
O=S(=O)(c1ccccc1Br)N1CCCC1c1nnc2ccccn12 (stereo not given)	6%	27%
COc1ccc2cc(C(=O)NC(C)C(=O)N3CCCC3)c(C)nc2c1 (stereo not given)	-4%	37%[activator]
NC(=O)CSc1cc(C(=O)NC2CC2)c2ccccc2n1	-12%	-10%
COc1ccccc1CN1C(=O)CN(S(C)(=O)=O)CC1(C)C(=O)NCc1ccccc1 (stereo not given)	10%	-2%
Cc1ccc(NC(=O)CCC2CCCCC2)c(NC(=O)c2ccco2)c1	13%	7%
Cc1ccc(S(=O)(=O)NCc2ccsc2)s1	169%[activator]	-3%
Cc1cc2oc(C(=O)Nc3cccc4cccnc34)c(C)c2cc1C	-6%	-5%
CCOCCCNC(=O)C(c1ccc(C)cc1)N(Cc1cccs1)C(=O)c1ccc(NC(C)=O)cc1 (stereo not given)	15%	-5%
CCC(Sc1nc2cc(OC)c(OC)cc2c2nc(-c3ccccc3)nn12)C(=O)Nc1cccc(C)c1 (stereo not given)	-12%	-25%
O=C(CCSc1ccccc1F)Nc1cccc(-n2cnnn2)c1	49%[activator]	36%[activator]
O=C(CSc1ccccc1F)NC(=O)C1CCCCC1	17%	29%
COc1cc(Cl)c(C)cc1NC(=O)CSc1ncc(S(=O)(=O)c2ccc(C(C)(C)C)cc2)c(=O)[nH]1	-4%	-18%
Remaining list, next part:
SMILES	StopGo RLuc	2A firefly
Cc1cc(C)nc(Nc2nc(-c3ccccc3)c3ccc(Cl)cc3n2)n1	-12%	-7%
COc1ccc2c(C)c(CC(=O)N3CCCC3)c(=O)oc2c1C	-1%	11%
COc1ccc(N2CC(NC(=O)c3ccc(Br)o3)CC2=O)cc1 (stereo not given)	-12%	-17%
COc1ccc(-c2nc3n(n2)C(c2ccc(OC)cc2)C(C(=O)Nc2cccnc2)=C(C)N3)cc1 (stereo not given)	-8%	-14%
COc1ccccc1-n1cc(-c2ccc(C)cc2)nc1S(=O)(=O)CC(=O)Nc1ccccc1C(F)(F)F	-93%	38%[activator]
C[N+](C)(CCOc1ccccc1)Cc1cccs1	-4%	-7%[11.5 µM]
CC(c1ccc(S(C)(=O)=O)cc1)N(C)S(=O)(=O)c1cccc(Cl)c1 (stereo not given)	26%	1%
COc1cccc(NC(=O)CN2C(=O)CC(c3ccccc3)=Nc3ccccc32)c1	?	-6%
CCC(C(=O)Nc1cccc(C(C)=O)c1)n1cnc2ccccc2c1=O (stereo not given)	16%	18%
COc1cccc(OCc2nc3ccccc3n2Cc2ccccc2C)c1	37%[activator]	-9%
Cc1cccc(N2CCN(C(=O)c3ccc4c(c3)N(Cc3cccc(Cl)c3)C(=O)c3ccccc3S4(=O)=O)CC2)c1C	-14%	0%
Cc1ccc(CNC(=O)C2CCN(c3nc4ccc(C)cc4[nH]3)CC2)cc1	-15%	17%
Cc1ccc2c(c1)C(c1ccc(F)cc1)N(C(=O)C(C)C)CC(=O)N2 (stereo not given)	?	-12%

Screening results: PubChem BioAssay, National Center for Advancing Translational Sciences (NCATS)
